Assay outcomes deposited in PubChem by several laboratories.
Autofluor counter: counter-screen for toxin protease inhibitors: compound fluorescence | compound autofluorescence counterscreen, microsphere flow cytometry; stronger effect = higher value | fluorescence intensity (no concentration beside the values) | 360,000 compounds, 3.1% hits | AID 624483;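 active means at least 3 SD above the mean of all compounds, about 16000 in these data; inconclusive means too few beads counted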;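 further: 100 nL of 1 mM stock went into each well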
Sa RN4220 lethal: S. aureus RN4220 growth inhibition; OD600, 16 h; inhibition, % (no concentration beside the values); 330,000 compounds, 0.33% hits; AID 1259311;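 active means z-score of -3 or lower and OD600 up to 0.18 on both plates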;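 further: plate controls were untreated cells for no effect and reference antibiotic for full effect; stock transfer was 100 nL into about 80 µL; one replicate is shown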
BJeLR lethal: kills HRASV12-expressing BJeLR cells. BJeLR (HRASV12) viability, CellTiter-Glo ATP luminescence, 48 h; reference of the scale not given here. inhibition, % (test concentration not listed). 300,000 compounds, 0.17% hits;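 active means replicate mean above 50%; inconclusive means above 50% but judged a plate artefact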;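 further: 50 nL library stock added to about 25 µL; numbers are from one replicate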
Mtb hypoxia rep: inhibitors of hypoxia-regulated fluorescent reporter in Mycobacterium tuberculosis | M. tuberculosis hypoxia-regulated fluorescent reporter, fluorescence | 300,000 compounds, 0.1% hits | AID 1159583 | fluorescence inhibition, % (test concentration not listed);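 active means 35 to 45% if threefold the growth effect, above 45% if 1.5-fold the growth effect; inactive means the rest, general growth blockers included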;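 further: wells of about 50 µL received 100 nL stock; 0% = vehicle wells and 100% = reference inhibitor wells; whole bacteria with a GFP reporter of the hypoxia response; strong numbers were not always called active; many hits fall short of the cut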
Sa ugtP lethal: kills S. aureus RN4220 lacking UgtP; S. aureus RN4220 ugtP deletion, OD600 growth, 16 h; some inactives read as strong as hits; growth inhibition, % (no concentration beside the values); 330,000 compounds, 0.54% hits;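 active means z-score under -3 and OD600 up to 0.15 on both plates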;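 further: plate controls were untreated wells for no effect and antibiotic for full effect; wells of about 80 µL received 100 nL stock; the first replicate is given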
PrP 5UTR inh: inhibition of PrP 5' UTR reporter expression; cell-based PrP 5' UTR mRNA reporter, plate reader; inhibition, % (test concentration not listed); 340,000 compounds, 0.35% hits;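 active means every replicate at 50% or more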;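 further: 0 = median of the neutral control wells; tested in H4 reporter cells; numbers are from one replicate; inactives centre near -14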
Mtb hypoxia rep growth: also measured in Mtb hypoxia rep; calls as there; growth inhibition, %; measured here: M. tuberculosis growth (absorbance);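 0% = vehicle and 100% = reference antibiotic; read after six days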
* hit, by the source's call; ? = inconclusive; . = no result given. Rows are unselected. Share with any hit: about 4%.

Below each SMILES – Autofluor counter	Sa RN4220 lethal	BJeLR lethal	Mtb hypoxia rep	Mtb hypoxia rep growth	Sa ugtP lethal	PrP 5UTR inh
> Cc1cc(C)n(CC(O)COc2ccccc2C(=O)Nc2ccccc2)n1 (configuration not stated)
    ?	-7.8	-6	-14	-7	-19	-17
> Cc1cc(C)n(-c2ccc(C(=O)O)cc2)n1
    2313	3.4	-9	9	0	-1	-13
> Cc1ccc(C(=S)N2CCN(Cc3ccccc3)CC2)cc1
    4224	0.8	9	-7	-8	5	-9
> CC(C)C(c1nnnn1Cc1ccc(F)cc1)N1CCN(C2CCCCC2)CC1 (configuration not stated)
    2688	-2.9	5	.	.	2	-5
> CC(C)(C)c1cc[n+](-c2[nH]c(=O)sc2/C=N/N=C(\[O-])c2cccnc2)cc1
    5932	.	-7	.	.	.	-32
> Nc1nc(NCCCN2CCOCC2)nc(Nc2ccccc2F)c1[N+](=O)[O-]
    7563	2.9	17	4	4	-3	-6
> O=C1c2ccccc2C(=O)N1Cc1nc(-c2ccccc2)no1
    21600*	-1.0	7	-5	-4	1	-23
> CN(C)c1oc(-c2cccs2)nc1C#N
    4283	-1.2	-2	.	.	8	-21
> Clc1ccc(CSc2ccc(-c3cccnc3)nn2)cc1
    4050	2.5	3	8	5	-2	-30
> COc1ccc(/C=N/NC(=O)c2ccc(COc3ccccc3Cl)o2)cc1
    4769	.	-2	.	.	.	-20
> O=C(NCc1ccco1)c1ccc(NS(=O)(=O)c2cccc([N+](=O)[O-])c2)cc1
    3093	0.7	6	7	2	2	-24
> O=C(Nc1ccccc1)c1ccc(CSc2ncccn2)cc1
    3026	0.0	12	13	10	10	-101
> Cc1onc(-c2ccccc2)c1-c1nnc(CN2CCN(S(=O)(=O)c3ccccc3)CC2)o1
    3212	1.3	.	0	-7	-2	-8
> COc1cc(OC)c(NS(=O)(=O)c2cccc(C(=O)OCC(=O)NCC3CCCO3)c2)cc1Cl (configuration not stated)
    4160	-6.7	-4	15	4	1	-2
> CCc1cccc(C)c1NC(=O)C1C2CCC(O2)C1C(=O)O (configuration not stated)
    2941	6.0	-9	12	7	5	3
> O=C(c1ccccc1Br)N(Cc1ccccc1)c1ccccc1
    4668	6.1	-8	9	1	7	-6
> Fc1cccc(F)c1CSc1nc2ccccc2[nH]1
    6313	7.8	3	11	13	-3	-115
> Cc1nn(-c2ccccc2)c(C)c1/C=N/n1c(-c2ccc(Cl)cc2)n[nH]c1=S
    2406	.	1	.	.	.	-26
> CCCOc1ccc(N2C(=O)CC(N(C(=O)c3ccco3)c3ccc(OCCC)cc3)C2=O)cc1 (configuration not stated)
    16880*	2.6	0	16	-2	14	-31
> CCN(CCO)Cc1csc2c(Br)cccc12
    3630	6.0	5	.	.	0	-3
> CCCNC(=O)N1C2CCC1C(C(=O)OC)=C(c1ccc(-c3ccccc3)c(F)c1)C2 (configuration not stated)
    .	-2.9	.	1	-3	5	.
> CCn1c(=O)cc(SCC(=O)NCc2ccccn2)c2ccccc21
    10282	-1.9	-22	1	-4	-9	.
> Cc1cccc(NC(=O)CSCC(=O)NCc2cccc(C(F)(F)F)c2)c1
    5837	4.0	12	8	-3	-3	-14
> CSc1ccccc1C(=O)N1CCCC(CNC(=O)c2ccc(F)cc2)C1 (configuration not stated)
    6259	4.1	11	5	7	10	-21
> COc1ccc(OC)c(-c2cc(C(=O)N3CCN(c4ccccc4)CC3)no2)c1
    6041	-3.4	2	-1	5	-13	1
> Cc1csc(SCC(=O)O)n1
    4725	0.4	-5	.	.	12	-3
> CCC(=O)Nc1cccc(C2=NOC3(C2)CC(C(N)=O)N(C(=O)CC#N)C3)c1 (configuration not stated)
    .	7.7	.	13	9	3	.
> Cc1cc(C)cc(NC(=S)N2CCN(Cc3ccccc3)CC2)c1
    2554	0.2	-1	13	10	2	-12
> CCOC(=O)c1nccnc1C(=O)Nc1cccc(C(F)(F)F)c1
    3830	1.8	-8	-7	2	0	-59
> Oc1ccc2ccccc2c1N=Nc1ccccn1
    3270	3.2	19	.	.	22	23

Other compounds follow:
Below each SMILES – Autofluor counter	Sa RN4220 lethal	BJeLR lethal	Mtb hypoxia rep	Mtb hypoxia rep growth	Sa ugtP lethal	PrP 5UTR inh
> N#Cc1c(N)nc(-c2ccccc2)nc1-c1ccccc1
    6787	3.5	8	-3	-5	3	-12
> CCN(CC#CCC(O)(c1ccccc1)C1CCCC1)C(C)C (configuration not stated)
    2877	-0.2	-1	.	.	1	14
> COC(=O)CSc1nc(NC#N)nc(NC(C)C)n1
    2905	-0.3	-4	4	6	-5	-5
> CCNc1nc2[nH]c(=O)c3c(c2s1)OC(N)=C(C#N)C3c1ccc(C)cc1 (configuration not stated)
    5078	5.1	3	.	.	1	1
> CC(=N/N=C1/NC(=O)C(CC(=O)Nc2ccc(C)c(Cl)c2)S1)C(C)C (configuration not stated)
    .	1.8	.	-4	2	-9	.
> NC(=O)NC(Cc1ccccc1)C(=O)Nc1ccc(S(N)(=O)=O)cc1 (configuration not stated)
    2411	3.4	1	.	.	2	-17
> Cc1ccc(S(=O)(=O)NC2(C(F)(F)F)NC(=O)N(c3ccc(F)cc3)C2=O)cc1 (configuration not stated)
    3776	-1.8	8	-8	1	4	-13
> Cc1ccc(C(=O)N2CCC3(CC2)Oc2ccc(F)cc2C(=O)C32CC(c3ccc(Cl)cc3)=NO2)s1 (configuration not stated)
    4139	4.7	6	-4	5	2	2
> CNC(C)C#Cc1ccc2oc3cc(C)c(C)cc3c(=O)c2c1 (configuration not stated)
    5181	.	2	.	.	.	-21
> O=[N+]([O-])c1cc2c(c(CSc3ncccn3)c1)OCOC2
    3317	6.0	-4	1	9	7	-44
> c1ccc(-c2cn(-c3ccccc3)c3ncnc(NCCCN4CCOCC4)c23)cc1
    4233	2.1	-33	12	9	9	-12
> CC(C)OC(=O)c1nnc(Cc2ccc(F)cc2)o1
    6109	-2.8	-6	.	.	3	-16
> O=C(COC(=O)C12CC3CC(CC(O)(C3)C1)C2)Nc1cccc(Br)c1
    ?	3.6	.	2	9	-6	-8
> N#CC1=C(N)Oc2cc(N)ccc2C1c1ccsc1 (configuration not stated)
    3588	1.2	13	1	-1	-2	-26
> O=S(=O)([O-])C(c1ccccc1)[n+]1ccccc1 (configuration not stated)
    2861	21	-10	-3	-8	14	-9
> Cc1ccc(C)c(OCCNc2ncccc2[N+](=O)[O-])c1
    .	5.1	-6	13	4	17	2
> O=c1n(-c2ccccc2)c(=O)n(Cc2ccccn2)n1Cc1ccccn1
    3387	3.5	-5	.	.	6	0
> O=C(CC12CC3CC(CC(C3)C1)C2)Nc1ccc(C(=O)O)cc1
    5375	4.3	4	3	4	7	-9
> COc1ccc(CCN(C)C(=O)c2cc(-c3ccccc3)nc3ccccc23)cc1OC
    5424	1.6	-3	-2	-3	-1	-4
> COc1cccc(NC(=O)c2cc(=O)c3ccccc3o2)c1
    4086	4.9	1	8	0	1	-18
> CCCCC1CNC(=S)N1CC1CCCCC1 (configuration not stated)
    .	5.7	.	18	14	-3	.
> CC[n+]1c(/C=C/N(C)c2ccccc2)sc2ccc(Cl)cc21
    6962	2.5	6	3	12	7	-13
> C/C(=N/NC(=O)c1nnn(-c2nonc2N)c1-c1ccccc1)c1ccc2c(c1)OCO2
    4591	.	-15	.	.	.	-16
> c1ccc2c(c1)ncn2CCn1cnc2ccccc21
    9669	0.3	-10	5	1	-2	-28
> CCC(=O)Nc1ccc(N2CCCCC2)c(C(=O)Nc2ccc(OC)cc2)c1
    5740	8.3	1	9	24	-23	-7
> CCCN(CC(=O)Nc1ccc(F)c(F)c1F)CC(=O)Nc1c(Cl)cccc1Cl
    3228	4.1	5	-9	6	18	-11
> COc1ccc(CCNC(=O)c2c(O)c3c([nH]c2=O)CCCC3)cc1
    4180	-4.3	6	.	.	-1	-13
> O=C(COc1ccccc1-c1ccccc1)NCCN1C(=O)S/C(=C\c2cccnc2)C1=O
    1993	-1.5	-7	0	-1	-14	-9
> COCc1cc(CNC(=O)C2CCC(=O)N(Cc3ccccc3F)C2)[nH]n1 (configuration not stated)
    5673	0.5	12	7	-1	1	-24
> O=c1oc(-c2ccccc2)nc2c1C1(CCCCC1)Cc1ccccc1-2
    4001	-0.6	-2	4	4	31	5

Whole records, quoted from the list:
Cc1cc(C)cc(NC(=S)N2CCN(Cc3ccccc3)CC2)c1 is entered as Autofluor counter: 2554; Sa RN4220 lethal: 0.2; BJeLR lethal: -1; Mtb hypoxia rep: 13; Mtb hypoxia rep growth: 10; Sa ugtP lethal: 2; PrP 5UTR inh: -12
CC(C)OC(=O)c1nnc(Cc2ccc(F)cc2)o1 is entered as Autofluor counter: 6109; Sa RN4220 lethal: -2.8; BJeLR lethal: -6; Mtb hypoxia rep: .; Mtb hypoxia rep growth: .; Sa ugtP lethal: 3; PrP 5UTR inh: -16

Further results
Below each SMILES – Autofluor counter	Sa RN4220 lethal	BJeLR lethal	Mtb hypoxia rep	Mtb hypoxia rep growth	Sa ugtP lethal	PrP 5UTR inh
> COc1ccc2nc(NC(=O)[C@@H]3CCCN3C(=O)c3cccs3)sc2c1
    2664	-1.2	-3	-5	-7	9	-16
> COc1ccccc1Nc1c2ccccc2nc2ccccc12
    4228	2.9	19	16	9	-1	-18
> O=C(c1ccccn1)N(CC1CCCO1)C1(C(=O)NC2CCCCC2)CCCCC1 (configuration not stated)
    4615	0.0	8	1	3	0	-6
> CCOC(=O)CSc1nc2ccccc2c(=O)n1NC(=O)c1ccccc1
    15046	2.9	9	-6	1	-5	-13
> CC(C)COP(=O)(c1ccc(N(C)C)cc1)C(O)c1ccccc1 (configuration not stated)
    3812	-2.3	5	-5	4	-5	-6
> O=C(CSc1cccc[n+]1[O-])NCC1CCCCC1
    3854	0.4	-9	2	7	-13	-2
> COc1ccc(Br)cc1C=NN1C(=O)CSC1=S
    .	3.4	.	.	.	0	.
> CCOC(=O)c1sc(NC(=O)c2cncc(Br)c2)nc1C
    .	3.9	0	5	-3	6	.
> CN(C)C=CC(=O)Oc1ccc(Cl)cc1Cl
    .	2.0	.	2	12	-2	.
> COc1ccc(N(C(=O)c2ccco2)S(=O)(=O)c2cc(OC)ccc2OC)cc1
    3193	15	-3	-4	4	4	-19
> CCOC(=O)CSc1snnc1C
    8790	0.7	-14	4	8	3	-17
> CCOc1c(Br)cc(CNc2ccc3c(c2)OCCO3)cc1OC
    3076	-0.3	37	-2	-5	18	-10
> COc1ccc(CCNC(=O)C2CC(c3ccccc3F)=NO2)cc1 (configuration not stated)
    3361	5.2	-5	17	1	0	-24
> O=C(c1ccc2c(=O)n(-c3ccccc3)c(=O)[nH]c2c1)N1CCN(c2ccc(F)cc2)CC1
    5921	-1.4	14	7	15	-4	-15
> CCN(CC(=O)Nc1ccc(OC)cc1)C(=O)CSCC(=O)Nc1cc(C)on1
    2837	2.0	.	-3	-4	5	11
> Cc1nn(CCCC(=O)NCCc2ccccc2)c(=O)c2nccn12
    5628	-0.3	-13	3	2	5	-18
> Cc1cccc(N2CC(C(=O)OCC(=O)c3c(N)n(CC(C)C)c(=O)n(C)c3=O)CC2=O)c1C (configuration not stated)
    .	0.6	.	6	5	-1	-5
> Cc1cc(C)n(-c2ccc(C(=O)Nc3cc(C(F)(F)F)ccc3N3CCOCC3)cc2)n1
    3414	0.4	3	.	.	-3	-16
> CCC(C(=O)NC1CCCCC1)n1c(SCc2cccc(F)c2)nc2ccncc21 (configuration not stated)
    6234	8.0	0	-12	16	9	-9
> Cc1ccc(CN2CC(C(=O)N3CCN(S(=O)(=O)c4ccccc4)CC3)CC2=O)cc1 (configuration not stated)
    .	6.2	.	11	1	10	-32
> COc1cc(C(=O)OC2CCN(C)CC2)cc(OC)c1OC
    .	-4.2	-5	.	.	0	-1
> CC(C)NC(=O)COc1ccc(C=NNS(=O)(=O)c2ccccc2)cc1
    .	2.4	.	7	8	-8	.
> C#CCC(NC(=O)c1ccc(C(F)(F)F)cc1)C(=O)NCCC (configuration not stated)
    3115	3.6	.	8	16	0	-4
> N#CC/C(N)=N/NC(=O)CCCNc1ncc(C(F)(F)F)cc1Cl
    4352	-2.3	-8	-4	-2	-1	-32
> Cc1cc(C(=O)N/N=C/c2c[nH]c3ccccc23)cs1
    2519	.	2	.	.	.	-21
> O=C(CCN1CCOCC1)N1c2ccccc2Sc2ccc(Cl)cc21
    3647	5.4	1	-1	11	-6	-12
> CCOc1ccccc1/C=c1\sc2nc(-c3ccco3)nn2c1=O
    2536	.	4	.	.	.	-20
> COc1ccc(N(CC(=O)Nc2ccccc2C(=O)NCC(C)C)S(C)(=O)=O)cc1
    2094	6.5	6	3	0	5	-14
